# Screening results as filed in PubChem.
# Polio RdRp inh: poliovirus RNA polymerase inhibition. P03300. poliovirus polymerase elongation, fluorescence polarization; active compounds read low. % elongation, % (compound at 16.7 µg/mL). hit rate 0.66% among 150,000. AID 588519; in the data active = % elongation below about 90%; also: some results filed as inactive read as strong as hits
# Target sequence (P03300 1749-2209 limits assumed): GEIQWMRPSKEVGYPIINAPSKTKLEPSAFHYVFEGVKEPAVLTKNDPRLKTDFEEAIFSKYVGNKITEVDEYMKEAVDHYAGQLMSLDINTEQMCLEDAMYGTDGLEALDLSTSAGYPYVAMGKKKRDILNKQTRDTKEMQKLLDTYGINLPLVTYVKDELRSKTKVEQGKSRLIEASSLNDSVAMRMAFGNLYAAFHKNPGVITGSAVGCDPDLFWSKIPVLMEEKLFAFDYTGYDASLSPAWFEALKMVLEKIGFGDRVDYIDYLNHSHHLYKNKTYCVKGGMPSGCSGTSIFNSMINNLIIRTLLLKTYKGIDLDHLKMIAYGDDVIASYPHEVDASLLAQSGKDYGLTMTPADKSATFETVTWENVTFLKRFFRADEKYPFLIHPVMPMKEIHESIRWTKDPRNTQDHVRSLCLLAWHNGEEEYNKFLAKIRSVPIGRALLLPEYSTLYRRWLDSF
# Polio RdRp inh intensity: second read-out of Polio RdRp inh, no call of its own (marks repeat the call); % elongation; measured here: total intensity read-out; formula for this scale not given here;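 total fluorescence in place of polarization; lower means less elongation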
# Active calls of the source: *.
SMILES,Polio RdRp inh,Polio RdRp inh intensity
COc1ccc(NC(=O)Cc2csc(C)n2)cc1,107,108
Cn1c(NCCCCO)nc2c1c(=O)n(Cc1ccc(Cl)cc1)c(=O)n2C,104,110
Cc1ccsc1CN(C(=O)COc1ccccc1Cl)C1CCS(=O)(=O)C1 (stereo not given),119,119
Cc1oc(C)c2c(=O)cc(-c3ccc4c(c3)OCO4)cc(OC(=O)c3ccc(Cl)cc3)c12,104,104
Cc1ccccc1C(=O)n1nc(-c2cccnc2)nc1NCc1ccc(F)cc1,104,108
CCCCS(=O)(=O)c1oc(-c2ccc(F)cc2)nc1S(=O)(=O)c1ccc(C)cc1,109,114
Cc1ccc(C)c(N2CCN(C(=O)CSCc3ccccc3Cl)CC2)c1,102,103
CCc1ccccc1NC(=O)CN1C(=O)COc2ccc(S(=O)(=O)N3CCCCCC3)cc21,116,115
CCOc1ccccc1CNC(=O)CCCN1C(=O)COc2ccc(C)cc21,106,106
Cc1cccc(-n2ncc(C(=O)N3CCOCC3)c2C2CCN(C(=O)OC(C)(C)C)CC2)c1,107,112
Cc1cc(C)cc(-n2c(SCC(N)=O)nc3c(oc4ccccc43)c2=O)c1,108,108
COc1ccc(N2CCN(C(c3ccc(F)cc3)c3sc4nc(-c5ccco5)nn4c3O)CC2)cc1 (stereo not given),102,98
Cc1cc(F)ccc1Nc1nc2ccc(Cl)cc2n2cnnc12,106,114
COc1ccccc1-c1nn2c(=O)cc(CN3CCN(C(=O)COc4ccccc4Cl)CC3)nc2s1,105,111
Cc1noc(-c2ccc(-c3noc(-c4ccccc4)n3)cc2)n1,110,111
CCN(c1cccc(C)c1)c1ncnc2c1cnn2-c1cccc(Cl)c1,107,114
CN1CCN(CCCNC(=O)c2cnn(-c3ccccc3)c2C2CCN(C(=O)OC(C)(C)C)CC2)CC1,100,97
CCc1cccc(CC)c1NC(=O)C(CC)n1nc(C)n2c(cc3cc(C)ccc32)c1=O (stereo not given),106,111
CCc1ccc2ncc3c(-c4ccc(C)cc4)nn(CC(=O)NCc4ccccc4)c3c2c1,101,108
Cc1ccccc1Cn1c(CN2CCC(C(=O)NCCc3ccccc3)CC2)cc2ccccc21,104,107
Oc1c(C(c2ccccc2Cl)N2CCCC2)sc2nc(-c3ccco3)nn12 (stereo not given),109,109
O=C(COc1ccccc1F)NC1CC(=O)N(c2ccc3c(c2)OCCO3)C1 (stereo not given),105,103
Cc1cccc(-c2nc(CSCC(=O)N3CCN(c4ccccc4)CC3)c(C)o2)c1,106,103
O=C(CN1C(=O)CCSc2ccccc21)Nc1ccc(C(F)(F)F)cc1,103,99
Cc1ccc(Cl)c2sc(N3CCN(C(=O)C4CC4)CC3)nc12,111,111
Cc1cc(=O)[nH]c2nnc(SCc3ccc(Cl)c(Cl)c3)n12,105,105
CC(C)c1ccc(NC(=O)C2CCCN(S(=O)(=O)c3cccc4cccnc34)C2)cc1 (stereo not given),106,110
COc1ccccc1N1CCN(c2nc3ccccc3n3cnnc23)CC1,108,113
COc1ccc(-c2nc3ccccc3s2)cc1NC(C)=O,108,111
CCCOc1ccc(CNC(=O)CCCn2nc(C)c3sc4ccccc4c3c2=O)cc1,110,107
COc1ccc(NC(=O)COCc2cc(-c3ccco3)on2)cc1,104,110
COC(=O)c1cnn(-c2ccc(C(=O)Nc3ccc(OC(F)(F)F)cc3)cc2)c1N,110,115
CCOc1ccc(CNC(=O)c2ccccc2NC(=O)c2nsc3ccccc23)cc1,108,112
CCOC(=O)Cn1c(=O)n(CC2CCCO2)c2nc(-c3ccccc3F)nc(C(N)=O)c21 (stereo not given),105,106
Cc1cccc(N2CCN(S(=O)(=O)c3cc(Cl)ccc3Cl)CC2)c1C,102,104
COc1ccc(-c2noc(-c3ccc(N4CCN(C)CC4)c([N+](=O)[O-])c3)n2)cc1OC,104,107
CCn1cc(C(=O)N2CCN(c3ccccc3)CC2)c(=O)c2cc(S(=O)(=O)N(C)C)ccc21,104,110
CC(=O)c1cccc(NS(=O)(=O)c2cc(-c3cnc(C4CC4)o3)ccc2C)c1,104,102
CCCNC(=O)c1ccc2c(c1)nc1n2CCCCC1,114,109
CCN(CC)C(=O)CSc1nc(-c2ccccc2F)nc2c1Cc1c(CO)cnc(C)c1O2,112,105
Cc1ccc(C)c(Cn2c(=O)c3c(nc4n3CCN4c3ccc(F)cc3)n(C)c2=O)c1,101,105
Cc1ccc(C)c(OCC(=O)Nc2ccc(S(=O)(=O)Nc3onc(C)c3C)cc2)c1C,101,99
CC(=O)N1c2ccc(S(=O)(=O)N3CCCCCC3)cc2CC1C(=O)NCc1cccc(C)c1 (stereo not given),112,109
CCOC(=O)c1c(-c2ccccc2)oc2cc(Br)c(OCc3ccccc3)cc12,108,107
COc1cc(OC)c(NC(=O)C2CCCN(c3ncnc4c3nc3n4CCCCC3)C2)cc1Cl (stereo not given),101,98
Cc1oc2ncn(C)c(=O)c2c1C(=O)NCCCN1CCCC(C)C1 (stereo not given),103,110
CC(C)CCNC(=O)CCCn1c(=O)c2cccn2c2ccccc21,110,114
O=C(Nc1ccccc1)C(Cc1ccccc1)N1Cc2ccccc2C1=O (stereo not given),108,114
CCCCn1c2ccccc2c2nnc(SCC(=O)Nc3ccc(NC(C)=O)cc3)nc21,100,104
CCc1ccccc1NC(=O)CSc1nnc2ccc3ccccc3n12,109,101
CCc1cnc2c(c1SCC(=O)N1CCCCC1)c(=O)n(C)c(=O)n2C,106,109
Cc1cccc(C)c1NC(=O)CN1C(=O)CCSc2ccc(S(=O)(=O)N3CCCC3)cc21,99,105
CC(C)Oc1ccc(C(=O)NCCc2csc(-c3cccc(F)c3)n2)cc1,101,109
CCOC(=O)c1c(NC(=O)Nc2ccc(F)cc2)sc(C(=O)N(C)C)c1C,104,106
CSc1ccc(CCNC(=O)c2cc(C)nc3c2c(C)nn3-c2ccccc2)cc1,104,103
Cc1nc2ccc(S(=O)(=O)CCC(=O)Nc3ccc(C)c(C)c3)cc2s1,98,95
COc1cc2c(=O)c(S(=O)(=O)c3ccc(C)cc3)cn(Cc3cccc(C)c3)c2cc1OC,105,107
NS(=O)(=O)c1ccc(CCNC(=O)C2CCN(c3ncnc4c3nc3n4CCCCC3)CC2)cc1,108,109
CSc1nc2sc3c(c2c(=O)n1-c1ccc(F)c(Cl)c1)CCN(C(C)=O)C3,106,108
Cc1ccc2oc(=O)c3cnn(CC(=O)NCc4ccccc4Cl)c3c2c1,106,107
# Later entries.
SMILES,Polio RdRp inh,Polio RdRp inh intensity
COc1ccc2c(c1)c1c(c(=O)n(Cc3ccccc3)c(=O)n1Cc1ccc(C)cc1)n2C,103,109
COc1ccccc1NC(=O)CN(C)S(=O)(=O)c1cccc2cccnc12,108,104
CCOCCCNC(=O)CN1C(=O)c2c(c3ccccc3n2C)C1c1ccc(OC)cc1 (stereo not given),108,112
CC1CCN(S(=O)(=O)c2ccc3nc(N4CCN(c5ccccc5)CC4)ccc3c2)CC1,109,104
Cc1ccc(CNC(=O)c2cc(-c3ccc(Cl)cc3)on2)cc1,106,108
Cc1nn(-c2ccccc2)c(OC(=O)C(C)C)c1Sc1ccc(Cl)cc1,108,108
COc1ccc(C2CC(=O)Nc3c2c(=O)n(C)c2nc4ccccc4n32)cc1 (stereo not given),103,109
O=C(c1cnn(-c2cccc(F)c2)c1-n1cccc1)N1CCN(c2ccccc2F)CC1,111,118
CCOC(=O)C1CCCN(C(=O)c2ccc3c(c2)sc2nc(-c4ccc(C)cc4C)cn23)C1 (stereo not given),106,100
COC(=O)c1ccc([C@@H]2Nc3c(OC)ccc(C)c3[C@@H]3C=CC[C@@H]32)cc1,110,115
CCn1c(C(=O)NCc2ccccc2Br)cc2oc3ccccc3c21,107,109
O=C(CN1CCN(CC(=O)Nc2ccccc2F)CC1)Nc1ccc(Cl)c(C(F)(F)F)c1,110,110
CS(=O)(=O)NCC(c1ccco1)N1CCN(c2ccccc2)CC1 (stereo not given),107,113
Cc1nn(-c2ccccc2)c(OC(=O)c2ccccc2Br)c1S(=O)(=O)c1ccccc1,108,110
Cc1ccc(Cl)cc1NS(=O)(=O)c1ccc2oc(=O)c3ncn(C)c3c2c1,104,101
COc1ccc2nc(NC(=O)c3cc(=O)c4ccccc4o3)sc2c1,112,111
COc1cccc(N2CCN(c3ccc4nnc(CCC(=O)O)n4n3)CC2)c1,109,111
Cc1ccc(-c2nnc3ccccc3c2C(=O)Nc2cccc(Cl)c2)cc1,114,110
CCN(CC)CCN(C(=O)c1ccc(C(=O)OC)cc1)c1nc2ccc(Cl)cc2s1,104,102
O=C1C(c2ccc(C(F)(F)F)cc2)=C(Nc2ccc(Cl)cc2)c2ccccc21,106,104
COc1ccc(CCC(=O)NCc2ccc3c(c2)CCN3C(=O)c2ccc(F)cc2)cc1,100,107
Cc1cc(OC(C)C(=O)N(Cc2ccco2)Cc2ccco2)cc(C)c1Cl (stereo not given),104,103
O=C(CCc1ccccc1)N1CCc2c([nH]c3ccccc23)C1c1ccc(Cl)cc1 (stereo not given),99,99
CC(C)c1ccc(C2NC(=O)c3c(sc4c3CCN(C)C4)N2)cc1 (stereo not given),124,167
Cc1cc(NC(=O)CSc2nc(-c3ccccc3F)nc3c2c(=O)n(C)c(=O)n3C)no1,107,110
Cc1ccc(-c2nnc(Nc3ccc(Cl)c(Cl)c3)c3ccccc23)cc1S(=O)(=O)NCCO,101,99
CCCCNC(=O)Nc1ccc2c(c1)N(C)C(=O)c1ccccc1S2,108,116
O=C(NCCc1csc(-c2ccc(F)cc2)n1)C(=O)Nc1ccc(Cl)cc1,105,108
CCOCCCNC(=O)Cn1nc(CC)n2c(cc3c(OC)cccc32)c1=O,103,105
CCS(=O)(=O)c1ncc(Cl)c(C(=O)Nc2ccccc2)n1,109,110

# A section from further up, as a working copy:
SMILES,Polio RdRp inh,Polio RdRp inh intensity
CS(=O)(=O)NCC(c1ccco1)N1CCN(c2ccccc2)CC1 (stereo not given),107,113
Cc1nn(-c2ccccc2)c(OC(=O)c2ccccc2Br)c1S(=O)(=O)c1ccccc1,108,110
Cc1ccc(Cl)cc1NS(=O)(=O)c1ccc2oc(=O)c3ncn(C)c3c2c1,104,101
COc1ccc2nc(NC(=O)c3cc(=O)c4ccccc4o3)sc2c1,112,111
COc1cccc(N2CCN(c3ccc4nnc(CCC(=O)O)n4n3)CC2)c1,109,111
Cc1ccc(-c2nnc3ccccc3c2C(=O)Nc2cccc(Cl)c2)cc1,114,110
CCN(CC)CCN(C(=O)c1ccc(C(=O)OC)cc1)c1nc2ccc(Cl)cc2s1,104,102
O=C1C(c2ccc(C(F)(F)F)cc2)=C(Nc2ccc(Cl)cc2)c2ccccc21,106,104
COc1ccc(CCC(=O)NCc2ccc3c(c2)CCN3C(=O)c2ccc(F)cc2)cc1,100,107
Cc1cc(OC(C)C(=O)N(Cc2ccco2)Cc2ccco2)cc(C)c1Cl (stereo not given),104,103
O=C(CCc1ccccc1)N1CCc2c([nH]c3ccccc23)C1c1ccc(Cl)cc1 (stereo not given),99,99
CC(C)c1ccc(C2NC(=O)c3c(sc4c3CCN(C)C4)N2)cc1 (stereo not given),124,167
Cc1cc(NC(=O)CSc2nc(-c3ccccc3F)nc3c2c(=O)n(C)c(=O)n3C)no1,107,110
Cc1ccc(-c2nnc(Nc3ccc(Cl)c(Cl)c3)c3ccccc23)cc1S(=O)(=O)NCCO,101,99
CCCCNC(=O)Nc1ccc2c(c1)N(C)C(=O)c1ccccc1S2,108,116
O=C(NCCc1csc(-c2ccc(F)cc2)n1)C(=O)Nc1ccc(Cl)cc1,105,108
CCOCCCNC(=O)Cn1nc(CC)n2c(cc3c(OC)cccc32)c1=O,103,105
CCS(=O)(=O)c1ncc(Cl)c(C(=O)Nc2ccccc2)n1,109,110

# (continued)
SMILES,Polio RdRp inh,Polio RdRp inh intensity
Cc1ccc(OC(=O)c2snnc2C)cc1C,104,93
COc1ccc(-c2nnn3c2nc(N2CCCC(C)C2)c2ccccc23)cc1 (stereo not given),103,104
Cc1ccc2c(c1)-c1onc(C(=O)N3CCN(c4ccc(Cl)cc4)CC3)c1CO2,109,108
Cc1ccc(-n2ncc(C(=O)NCCc3c[nH]c4ccccc34)c2C2CCN(C(=O)OC(C)(C)C)CC2)cc1C,103,103
Cc1ccc(NC(=O)N2CCC(c3ccccc3)C2)cc1C (stereo not given),101,104
COc1cccc(NC(=O)Cn2c(=O)n(CCC(=O)NCCc3ccc(Cl)cc3)c(=O)c3ccccc32)c1,110,112
CCC1CCCCN1CCCNC(=O)c1ccc2c(c1)N(Cc1ccc(Cl)cc1)C(=O)c1ccccc1S2(=O)=O (stereo not given),109,109
COc1cccc(NC(=O)Cn2cc(C(=O)c3ccccc3)c3ccccc32)c1,101,103
CC(C)NC(=O)C1CCN(C(=O)N2CC(C)Oc3ccccc32)CC1 (stereo not given),110,113
Cc1ccc(Cl)cc1N1CCN(c2ncnc3c2nc2n3CCCCC2)CC1,108,110
CCOc1ccc(Nc2oc(-c3ccc(COc4ccccc4C)o3)nc2C#N)cc1,106,106
Cc1ccccc1CCNC(=O)c1ccc(NC(=O)N2CC(C)Sc3ccccc32)cc1 (stereo not given),107,108
Cc1ccc(CNC(=O)CCC(=O)N2Cc3ccccc3Oc3ncccc32)cc1,107,108
CCOC(=O)c1cc(OC(=O)c2ccc(OC)cc2)n(-c2ccccc2)n1,108,107
O=C(C1CCN(c2ncnc3c2nc2n3CCCCC2)CC1)N1CCN(c2ccc(F)cc2)CC1,110,109
COc1ccc(Cl)cc1NC(=O)c1sc2nc3c(cc2c1N)N1CCC3CC1,104,102
Cc1cccc(C(=O)Nc2cccc(OCc3cc(=O)n4cccc(C)c4n3)c2)c1,103,105
Cc1ccc(CCNC(=O)c2cc3cc(S(=O)(=O)N4CCCCC4)ccc3n2C)cc1,112,118

# This is a subset, so the mix of outcomes need not match the whole.
